Vaccinia stage = blocks a specific stage of Vaccinia orthopoxvirus infection, primary screen, cell-based, single point. hit rate 0.01% among 89,000. Vaccinia-infected cells, mCherry/Venus stage reporter fluorescence; stronger effect = lower value; some inactives read as strong as hits. activity change (mCherry), % (test concentration not listed);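 active means mCherry past -33% and 40 or more points under the early reporter, replicates agreeing; inconclusive means past -33% without that gap or agreement; tested in A549 cells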;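 further: scaled between vehicle wells and reference inhibitor wells; 23 nL library stock went into each well; one replicate is shown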
Vaccinia stage Venus = also measured in Vaccinia stage; calls as there; activity change (Venus), %; measured here: Venus reporter, other viral stage;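 negative = less Venus signal; first of two replicates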
* = called active by the depositor; ? = inconclusive; / = no result given.

Order of values: Vaccinia stage	Vaccinia stage Venus
- C[C@H](CO)N1C[C@H](C)[C@@H](CN(C)C(=O)C2CCC2)Oc2cc(-c3cncnc3)ccc2S1(=O)=O
    -6	-7
- COc1ccc2c3c([nH]c2c1)[C@H](CO)N(C(=O)Cc1ccccc1)CC31CN(C)C1
    6	-2
- COc1ccc(-c2ccc([C@H]3[C@@H](C#N)N(C(=O)c4cccc(F)c4)[C@H]3CO)cc2)cc1
    -5	-1
- O=C(Nc1cc(F)ccc1F)N1CCCCN2[C@H](CO)[C@@H](c3ccc(-c4ccccc4)cc3)[C@@H]2C1
    ?	/
- O=C(c1ccccn1)N1CC[C@H]2[C@H](CO)Nc3ccc(-c4ccc(F)cc4)cc3[C@H]21
    -27	-22
- COc1ccc2c3c(n(C)c2c1)[C@H](CO)N(C(=O)Nc1ccccc1F)CC31CN(C(=O)c2ccccc2F)C1
    ?	/
- C[C@H](CO)N1C[C@H](C)[C@H](CN(C)C(=O)C2CCC2)Oc2cc(C#CCN(C)C)ccc2S1(=O)=O
    6	5
- CC=Cc1ccc2n(c1=O)C[C@@H]1[C@@H](CO)[C@H](C(=O)N(C)C)[C@H]2N1CC1CCOCC1 (mixture of isomers)
    16	6
- O=C(C[C@@H]1CC[C@@H]2[C@H](COC[C@@H](O)CN2C(=O)Nc2ccc(Cl)cc2)O1)NC1Cc2ccccc2C1
    ?	/
- COCCN(C[C@H]1[C@H](c2ccccc2)[C@H](CO)N1C(C)=O)C(=O)c1cccnc1
    6	-1
- C[C@@H]1CN([C@H](C)CO)C(=O)c2cc(-c3cccnc3)cnc2O[C@@H]1CN(C)C(=O)NC1CCCC1
    26	5
- COc1ccc(-c2cnc3c(c2)C(=O)N([C@@H](C)CO)C[C@@H](C)[C@@H](CN(C)C(=O)Cc2ccncc2)O3)cc1
    -4	-3
- COCC(=O)Nc1ccc2c(c1)OC[C@H](C)N(C(=O)c1ccccc1)C[C@H](C)[C@@H](OC)CN(C)C2=O
    5	7
- CS(=O)(=O)N1[C@H](C#N)[C@@H](c2ccc(C#CC3CCCC3)cc2)[C@@H]1CO
    -11	-6
- Cc1cc(C(=O)Nc2cccc3c2O[C@H](CN(C)C)[C@H](C)CN([C@@H](C)CO)C3=O)n(C)n1
    -3	-4
- O=C(Cc1ccncc1)NCC[C@H]1CC[C@H](NC(=O)Nc2cccc(F)c2)[C@H](CO)O1
    4	5
- O=C(C1=C[C@@H](c2ccc3c(c2)OCO3)C[C@@H](OCc2ccc(CO)cc2)O1)N1CCCCC1
    2	3
- CO[C@@H]1CN(C)C(=O)c2ccc(NC(=O)c3ccc(F)cc3)cc2OC[C@@H](C)N(C(C)=O)C[C@H]1C
    1	-3
- Cc1noc(C)c1NC(=O)N(C)C[C@@H]1Oc2ccc(NC(=O)c3ccncc3)cc2CC(=O)N([C@H](C)CO)C[C@@H]1C
    12	10
- C[C@H]1CN([C@@H](C)CO)C(=O)Cc2cc(NC(=O)CCN3CCOCC3)ccc2O[C@@H]1CN(C)C(=O)Nc1ccccc1
    27	14
- C[C@@H]1CN([C@H](C)CO)C(=O)c2cccc(NS(=O)(=O)c3ccc(Cl)cc3)c2O[C@@H]1CN(C)Cc1ccncc1
    0	7
- O=C(N[C@H]1CC[C@H](CCNS(=O)(=O)c2ccccc2)O[C@@H]1CO)c1cccnc1
    -6	3
- O=C([C@H]1[C@H](CO)[C@H]2Cn3c(ccc(-c4ccccc4)c3=O)[C@H]2N1Cc1cocn1)N1CCCCC1
    -6	-2
- COc1cccc(NC(=O)N(C)C[C@H]2Oc3ncc(C4=CCCCC4)cc3C(=O)N([C@H](C)CO)C[C@@H]2C)c1
    -20	-18
- C[C@H]1CN([C@@H](C)CO)S(=O)(=O)c2ccc(C#CCC3CCCC3)cc2O[C@@H]1CN(C)C(=O)CN(C)C
    ?	/
- COc1ccc(NC(=O)Nc2ccc3c(c2)C(=O)N([C@H](C)CO)C[C@H](C)[C@H](CN(C)Cc2ccc4c(c2)OCO4)OCCCC[C@H](C)O3)cc1
    ?	/
- C[C@H](CO)N1C[C@H](C)[C@H](CN(C)Cc2ccc(Cl)c(Cl)c2)Oc2c(NC(=O)C3CCCCC3)cccc2C1=O
    -30	-28
- COc1ccc2c3c([nH]c2c1)[C@H](CO)N(C(=O)C1CCOCC1)CC31CN(S(C)(=O)=O)C1
    11	0
- CCCNC(=O)N1CCC2(CC1)CN(C(=O)CC1CC1)[C@H](CO)c1[nH]c3cc(OC)ccc3c12
    16	13
- CCNC(=O)C[C@H]1CC[C@@H]2[C@H](COc3ccc(NC(=O)C4CCCCC4)cc3C(=O)N2C)O1
    0	-5

Next section; the last 2 above are carried over.
Order of values: Vaccinia stage	Vaccinia stage Venus
- CCCNC(=O)N1CCC2(CC1)CN(C(=O)CC1CC1)[C@H](CO)c1[nH]c3cc(OC)ccc3c12
    16	13
- CCNC(=O)C[C@H]1CC[C@@H]2[C@H](COc3ccc(NC(=O)C4CCCCC4)cc3C(=O)N2C)O1
    0	-5
- Cc1ccc(S(=O)(=O)N(C)C[C@H]2Oc3c(cccc3N(C)C)C(=O)N([C@@H](C)CO)C[C@H]2C)cc1
    4	14
- CC(C)NC(=O)N(C)C[C@@H]1OCc2ccccc2-c2c(n(C)c3ccccc23)C(=O)N([C@@H](C)CO)C[C@H]1C
    -11	-9
- COCC(=O)N1[C@H](C#N)[C@@H](c2ccc(-c3cccnc3)cc2)[C@@H]1CO
    7	4
- CS(=O)(=O)Nc1ccc2c(c1)[C@H]1C[C@@H](CC(=O)NCc3ccccc3)O[C@H](CO)[C@H]1O2
    1	1
- CCCNC(=O)N(C)C[C@@H]1Oc2cc(C#CCOC)ccc2S(=O)(=O)N([C@@H](C)CO)C[C@H]1C
    13	5
- COc1cccc(-c2ccc([C@@H]3[C@@H](CO)N4C(=O)CN(C(=O)C5CC5)C[C@H]34)cc2)c1
    -12	-8
- CC(=O)NC[C@@H]1[C@@H](c2ccc(-c3ccccc3F)cc2)[C@@H](CO)N1C(C)=O
    4	13
- O=S(=O)(c1cccs1)N1CCCCN2[C@@H](CO)[C@@H](c3ccc(-c4ccccc4)cc3)[C@@H]2C1
    ?	/
- CCCNC(=O)N1CC2(C1)[C@@H](c1ccccc1)[C@H](CO)N2CC1CC1
    8	9
- CO[C@H]1CN(C)C(=O)c2cc(NC(=O)C3CC3)ccc2OC[C@@H](C)N(CCC(F)(F)F)C[C@H]1C
    0	6
- O=C(Nc1ccccc1F)N1CC(=O)N2[C@@H](CO)[C@H](c3ccc(C#Cc4ccccc4)cc3)[C@@H]2C1
    -24	-12
- C[C@H]1CN([C@@H](C)CO)S(=O)(=O)c2ccc(Br)cc2O[C@H]1CN(C)C(=O)CC1CC1
    -11	-11
- O=C(Nc1ccccc1)N[C@H](Cc1ccccc1)Cn1cc(CN2C(=O)COC[C@H]2c2ccccc2)nn1
    -3	-7
- C[C@@H]1CN([C@@H](C)CO)S(=O)(=O)c2ccc(C#C[C@@H](C)O)cc2O[C@@H]1CN(C)Cc1cncnc1
    4	-1
- CCCC#Cc1cnc2c(c1)C(=O)N([C@H](C)CO)C[C@H](C)[C@H](CN(C)C(=O)c1ccc(F)cc1)O2
    7	6
- CNC[C@H]1Oc2ncc(C#CC3CCCC3)cc2C(=O)N([C@H](C)CO)C[C@H]1C
    -23	-18
- CO[C@@H]1CN(C)C(=O)c2ccc(NC(=O)NC(C)C)cc2OC[C@@H](C)N(Cc2ccc(-c3ccccn3)cc2)C[C@@H]1C
    -14	-11
- O=C(Cc1ccccc1)N1CC(=O)N2[C@H](C1)[C@@H](c1ccc(-c3ccc(F)cc3)cc1)[C@@H]2CO
    ?	/
- C[C@H]1CN([C@@H](C)CO)C(=O)c2cc(-c3cncnc3)cnc2O[C@@H]1CN(C)Cc1ccc(Oc2ccccc2)cc1
    ?	/
- CCC(=O)N(C)C[C@@H]1Oc2ncc(C#CC(C)C)cc2C(=O)N([C@H](C)CO)C[C@H]1C
    18	5
- O=C(N[C@@H]1CC[C@H](CC(=O)N2CCc3ccccc3C2)O[C@@H]1CO)C1CCOCC1
    -2	-7
- C[C@@H]1CN([C@H](C)CO)S(=O)(=O)c2ccc(C#CC3(O)CCCC3)cc2O[C@@H]1CN(C)C(=O)c1cccnc1
    17	7
- COc1ccc(NC(=O)N(C)C[C@H]2Oc3ncc(C#C[C@H](C)O)cc3C(=O)N([C@@H](C)CO)C[C@@H]2C)cc1
    15	4
- C[C@@H]1CCCCO[C@@H](CN(C)Cc2ccc(C(F)(F)F)cc2)[C@@H](C)CN([C@@H](C)CO)C(=O)c2cc(NS(=O)(=O)c3ccc(F)cc3)ccc2O1
    ?	/
- C[C@@H]1CCCCO[C@@H](CN(C)S(=O)(=O)c2ccc(Cl)cc2)[C@@H](C)CN([C@H](C)CO)C(=O)c2cc(NC(=O)c3ccccc3)ccc2O1
    0	-8
- COc1ccc(S(=O)(=O)N[C@H]2CC[C@@H](CC(=O)NCCc3ccncc3)O[C@H]2CO)cc1
    13	12
- Cc1noc(C)c1S(=O)(=O)N(C)C[C@@H]1Oc2c(NS(=O)(=O)c3cn(C)cn3)cccc2C(=O)N([C@H](C)CO)C[C@@H]1C
    7	9
- C/C=C/c1ccc2c(c1)O[C@@H](CN(C)C(=O)Cc1cccnc1)[C@@H](C)CN([C@@H](C)CO)S2(=O)=O
    -1	-9
- O=C(CN1CCOCC1)N1CC[C@@H]2[C@H](CO)Nc3ccc(-c4ccccc4)cc3[C@@H]21
    -9	-5
- C[C@H](CO)N1C[C@H](C)[C@H](CN(C)Cc2ccc(C(=O)O)cc2)OCc2ccccc2-c2ccccc2C1=O
    15	20
- O=C(NC1CCCCC1)N[C@@H]1C=C[C@@H](CC(=O)N2CCOCC2)O[C@@H]1CO
    1	-10
- CCCN1[C@H](C(=O)N2CCOCC2)[C@@H](CO)[C@@H]2Cn3c(ccc(-c4ccccc4F)c3=O)[C@@H]21
    0	-1
- COc1cccc(CN2C[C@@H]3N[C@H](C2)C3c2ccc(-c3cccc(C#N)c3)cc2)c1 (stereo partly drawn)
    ?	/
- CO[C@@H]1CN(C)C(=O)c2cc(NS(C)(=O)=O)ccc2OC[C@H](C)N(C(=O)C2CCOCC2)C[C@H]1C
    10	12
- Cc1ccc(S(=O)(=O)N(C)C[C@H]2OCCCC[C@H](C)Oc3ccc(NC(=O)Cc4ccccc4)cc3C(=O)N([C@H](C)CO)C[C@@H]2C)cc1
    -12	1
- COc1ccccc1NC(=O)N[C@H]1C=C[C@@H](CC(=O)N[C@@H](C)c2ccccc2)O[C@@H]1CO
    -16	1
- COCC(=O)N1[C@H](C#N)[C@@H](c2ccc(C3=CCCCC3)cc2)[C@@H]1CO
    -17	-16
- CO[C@H](CN(C)S(=O)(=O)c1cccc(Cl)c1)[C@H](C)CN([C@@H](C)CO)S(=O)(=O)c1cccc(Cl)c1
    ?	/
- C/C=C/c1ccc2c(c1)O[C@@H](CN(C)C(=O)c1ccccc1)[C@H](C)CN([C@@H](C)CO)S2(=O)=O
    -9	-3
- O=C(C1=C[C@H](c2ccccc2)C[C@H](OCc2ccc(CO)cc2)O1)N1CCCC1
    12	8

Whole records from above. Values in the order: Vaccinia stage, Vaccinia stage Venus
O=C(Nc1ccccc1F)N1CC(=O)N2[C@@H](CO)[C@H](c3ccc(C#Cc4ccccc4)cc3)[C@@H]2C1 is entered as -24, -12
C[C@@H]1CN([C@H](C)CO)S(=O)(=O)c2ccc(C#CC3(O)CCCC3)cc2O[C@@H]1CN(C)C(=O)c1cccnc1 is entered as 17, 7
CC(C)NC(=O)N(C)C[C@@H]1OCc2ccccc2-c2c(n(C)c3ccccc23)C(=O)N([C@@H](C)CO)C[C@H]1C is entered as -11, -9
O=C(NC1CCCCC1)N[C@@H]1C=C[C@@H](CC(=O)N2CCOCC2)O[C@@H]1CO is entered as 1, -10

Additional records:
Order of values: Vaccinia stage	Vaccinia stage Venus
- CNC[C@H]1Oc2c(NC(=O)Nc3ccc(C(F)(F)F)cc3)cccc2C(=O)N([C@H](C)CO)C[C@H]1C
    -18	-6
- O=C(c1cccnc1)N1C[C@@H]2[C@H](c3ccccc31)[C@H](CO)N2C(=O)Nc1ccccc1Cl
    3	6
- C/C=C/c1ccc2c(c1)O[C@@H](CN(C)C(=O)c1cccc(F)c1)[C@H](C)CN([C@H](C)CO)S2(=O)=O
    -15	-10
- O=C(c1cccnc1)N1CC(=O)N2[C@H](C1)[C@H](c1ccc(-c3cccnc3)cc1)[C@@H]2CO
    9	8
- O=C(C[C@@H]1C[C@@H]2c3cc(NC(=O)Cc4ccncc4)ccc3O[C@@H]2[C@H](CO)O1)NCc1cc(F)ccc1F
    5	10
- O=C(NCC1CCCCC1)[C@@H]1[C@@H](CO)[C@@H]2Cn3c(ccc(-c4ccncc4)c3=O)[C@H]1N2
    0	6
- CC(C)[C@H](C)NC(=O)N(C)C[C@H]1OCc2ccccc2-c2ccccc2C(=O)N([C@H](C)CO)C[C@@H]1C
    27	11
- Cc1noc(C)c1NC(=O)N(C)C[C@H]1Oc2ccc(NC(=O)Nc3cccc4ccccc34)cc2C(=O)N([C@@H](C)CO)C[C@@H]1C
    5	6

High-throughput results deposited in PubChem BioAssay by Broad Institute.

A portion of the library (hit frequency here may not be typical).
